# StopGo reporter – High Throughput Screening for Foot and Mouth Disease Virus Antivirals; human cells with a luciferase reporter of 2A StopGo recoding; control for the full effect not named in the record; 410,000 tested, 1.2% active; Potency, µM (doses to about 57.9 µM), without a hit: top-dose signal change, negative = less light; active = well fitted falling curve with a large enough effect; inconclusive = small, poorly fitted or top-dose-only effect; inactive = no such curve, though single readings can be large or run the other way; tested in HEK293T cells; also: % is scaled to controls: 0 for no effect and ±100 for the full control effect; nearly all actives have a fitted effect of over 45% in size; luciferase light after 4 h
# SARS PLP yeast – qHTS of Yeast-based Assay for SARS-CoV PLP | S. cerevisiae expressing SARS-CoV PLpro, growth rescue; control for the full effect not named in the record | Potency, µM (doses to about 32.9 µM), inactives show at the top dose activity, positive = growth rescue | 330,000 tested, 0.19% active | AID 485353, 2010; active means well fitted rising curve with a large enough effect; inconclusive means small, poorly fitted or top-dose-only effect; inactive means no such curve, though single readings can be large or run the other way; also: 0% is about no effect; nearly all actives have a fitted effect of over 55% in size; growth read by luminescence after 48 h
# RE007 growth inh – qHTS Assay for Inhibitors of the HIV-1 protein Vpr. S. pombe RE007 Vpr strain, BacTiter-Glo ATP luminescence, 24 h; control for the full effect not named in the record. Potency, µM (series often up to 92.2 µM), without a hit: at the top dose activity change, negative = less growth. 360,000 tested, 0.21% active; active = well fitted falling curve with a large enough effect; inconclusive = small, poorly fitted or top-dose-only effect; inactive = no such curve, though single readings can be large or run the other way;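 also: % is scaled to controls: 0 for no effect and ±100 for the full control effect; nearly all actives have a fitted effect of over 50% in size; the assay follows cell death caused by Vpr and the record does not say whether a fall means rescue or toxicity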
#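 Fission yeast RE007 carrying one integrated HIV-1 vpr copy, seeded at OD 0.01 in PMG+AL medium with 23 nL pinned compound. Grown 24 h at 30 degrees; viability read by BacTiter-Glo luminescence after 5 min.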
# * = called active by the depositor; ? = inconclusive; [ ] = another dose, or the depositor's remark. Potency is read from the fitted curve at half-maximal effect. Only part of the results is shown (hit frequency here may not be typical).
SMILES | SARS PLP yeast | StopGo reporter | RE007 growth inh
O=C(CNC(=O)c1ccc(Br)o1)NNC(=O)c1ccc(Br)cc1 | 11% | 2% | 8%
COC(=O)C1=C(c2ccc(F)cc2OCc2ccccc2)C[C@@H]2CC[C@H]1N2C(=O)NCCO | 0% | -6% | 1%
CCCN(CCC)CCCNC(=S)Nc1ccc2nc(N3CCCC3)cc(C)c2c1 | 0% | -13% | 0%
O=C(COC(=O)c1ccc(F)cc1F)Nc1cccnc1Cl | 0% | 2% | 3%
O=P(COCCCCCOCP(=O)(c1ccccc1)c1ccccc1)(c1ccccc1)c1ccccc1 | -3% | -22% | 13%
Cc1cccc(C(=O)NNC(=O)/C=C/C(=O)O)c1 | -1% | 15% | -3%
O=C(Cn1cnc2ccccc2c1=O)N1CCN(S(=O)(=O)c2ccc(F)cc2)CC1 | 2% | -13% | 0%
CN(C)C(=O)COc1ccc(Oc2ccccc2)cc1 | 0% | 11% | 10%
O=C1C=C(c2ccc(F)cc2OCc2ccccc2)C[C@@H](c2ccc3c(c2)OCO3)C1 | 7% | ? | 5%
CCOc1ccc(CN(C)C(=O)CCc2ccc(S(=O)(=O)N3CCCCCC3)cc2)cc1 | 2% | ? | 4%

# For convenience, some entries already given:
SMILES | SARS PLP yeast | StopGo reporter | RE007 growth inh
O=C(CNC(=O)c1ccc(Br)o1)NNC(=O)c1ccc(Br)cc1 | 11% | 2% | 8%
COC(=O)C1=C(c2ccc(F)cc2OCc2ccccc2)C[C@@H]2CC[C@H]1N2C(=O)NCCO | 0% | -6% | 1%

# Additional compounds
SMILES | SARS PLP yeast | StopGo reporter | RE007 growth inh
O=C(COC(=O)c1ccc2ncsc2c1)NCc1cccc(Cl)c1 | -10% | 7% | 7%
O=C(O)[C@@H]1CCCN(S(=O)(=O)c2cccc3cccnc23)C1 | -1% | -13% | 4%
O=c1cc[nH]c2c1ccc1cccnc12 | -1% | 9% | 0%
O=C(Nc1ccc(S(=O)(=O)N2CCCCC2c2cccnc2)cc1)c1ccccc1F (configuration not stated) | -2% | ? | 25%
C[C@H]1COC(=O)CCC/C=C\C[C@H](CC(=O)N(CCO)Cc2ccccc2)C(=O)N1 | -4% | -22% | -21%
CCCNC(=O)C(Cc1ccc(I)cc1)NC(=O)C1CC1 (configuration not stated) | 0% | -14% | -15%
CCC(C)N(C(=O)CSc1ncnc2sccc12)C1CCS(=O)(=O)C1 (configuration not stated) | 0% | -6% | -11%
O=C1[C@H]2[C@@H](c3ccc(F)cc3)N3C(=O)N(c4cccc(Cl)c4)C(=O)[C@@]3(Cc3ccccc3)[C@H]2C(=O)N1C1CCCCC1 | 3% | -14% | 17%
COc1cc(C(=O)NCC(=O)NNC(=O)C2COc3ccccc3O2)cc(OC)c1OC (configuration not stated) | -2% | -6% | -14%
CC(=O)c1ccc(OCC(=O)OC(C)C(=O)NC2CCCCC2C)cc1 (configuration not stated) | 6% | -9% | 10%
Cc1ccc(-c2csc(NC(=O)c3c(C)noc3C)n2)cc1C | 1% | -10% | -10%
O=C(Nc1ccc(OC(F)(F)F)cc1)c1[nH]ncc1[N+](=O)[O-] | -7% | 8% | -13%
COc1ccc(OC)c(NC(=O)COC(=O)c2ccc(OC)c(S(=O)(=O)N3CCOCC3)c2)c1 | -4% | -13% | 14%
Cc1ccc(F)cc1NC(=O)COC(=O)c1ccc2ncsc2c1 | -1% | -4% | -3%
O=C(COC(=O)c1cc(S(=O)(=O)N2CCOCC2)ccc1O)Nc1ccc2c(c1)OCO2 | 0% | -12% | 6%
COc1cc(S(=O)(=O)N2CCOCC2)ccc1NC(=O)COC(=O)c1ccc(Cl)nc1 | 1% | -6% | 6%
Cc1ccc(C(=O)OCC(=O)Nc2ccc(C(N)=O)cc2)s1 | -14% | 7% | -4%
OC(CNC1CCCCC1)CNC1CCCCC1 | 1% | 17% | 9%
COC(=O)[C@]1(C)N[C@H](CN(C)C(=O)c2ccccc2)[C@@H]2C(=O)N(Cc3ccccc3)C(=O)[C@@H]21 | -5% | 3% | 3%
CCCC[C@@H]1CNCCN1CCc1cc(C(F)(F)F)cc(C(F)(F)F)c1 | -7% | -10% | 11%

# Ordered by count of non-hydrogen atoms (falling): part of the list above
SMILES | SARS PLP yeast | StopGo reporter | RE007 growth inh
COc1ccc(OC)c(NC(=O)COC(=O)c2ccc(OC)c(S(=O)(=O)N3CCOCC3)c2)c1 | -4% | -13% | 14%
COc1cc(C(=O)NCC(=O)NNC(=O)C2COc3ccccc3O2)cc(OC)c1OC (configuration not stated) | -2% | -6% | -14%
O=C(CNC(=O)c1ccc(Br)o1)NNC(=O)c1ccc(Br)cc1 | 11% | 2% | 8%
O=C(O)[C@@H]1CCCN(S(=O)(=O)c2cccc3cccnc23)C1 | -1% | -13% | 4%

# The list goes on:
SMILES | SARS PLP yeast | StopGo reporter | RE007 growth inh
CC(Oc1ccc(F)cc1)C(=O)Nc1ccc(S(=O)(=O)NC2=NCCCCC2)cc1 (configuration not stated) | 5% | -5% | 15%
Cn1c(=O)cc(OCC(=O)NCCc2ccc(Cl)cc2)c2ccccc21 | 4% | -4% | 6%
COC(=O)c1ccccc1S(=O)(=O)N1CCC(C(=O)NCCC2=CCCCC2)CC1 | -6% | -9% | -4%
O=c1cc(N2CCN(c3ccccc3)CC2)[nH]c(=O)n1-c1ccccc1 | -2% | -13% | -5%
CCN(CC(=O)Nc1ccc(NC(C)=O)cc1)C(=O)CSC(c1ccccc1)c1ccccc1 | 3% | -16% | 3%
Cc1cc(C(=O)NNC(=O)c2ccc(NC(=O)CC#N)cc2)c(C)o1 | 1% | -10% | 12%
COc1ccc(-c2ccnc3c(Br)c(C)nn23)cc1 | -2% | -23% | -28%
N#C/C=C/N1CCN(C(=O)c2ccco2)CC1 | 4% | -7% | 14%
NS(=O)(=O)c1cccc(NC(=O)COC(=O)CCN2C(=O)c3ccccc3C2=O)c1 | 3% | -1% | -2%
COc1cc2cc(CCCOC(=O)c3ccc(F)cc3)oc(=O)c2cc1OC | 4% | -14% | -2%

# Quoted at random: 2 compounds from above
SMILES | SARS PLP yeast | StopGo reporter | RE007 growth inh
NS(=O)(=O)c1cccc(NC(=O)COC(=O)CCN2C(=O)c3ccccc3C2=O)c1 | 3% | -1% | -2%
CC(Oc1ccc(F)cc1)C(=O)Nc1ccc(S(=O)(=O)NC2=NCCCCC2)cc1 (configuration not stated) | 5% | -5% | 15%

# (listing goes on)
SMILES | SARS PLP yeast | StopGo reporter | RE007 growth inh
CC(=O)Nc1cccc(NC(=O)c2cc([N+](=O)[O-])ccc2N2CCCCC2)c1 | 4% | -21% | 0%
COC(=O)C1=C(c2ccc(C(C)=O)cc2)C[C@@H]2CC[C@H]1N2C(=O)NCc1ccc(C(F)(F)F)cc1 | 1% | -5% | -7%
CCOc1cc(C2c3c(-c4ccccc4)n[nH]c3C(=O)N2c2ccc(C(=O)O)cc2)ccc1O (configuration not stated) | 2% | -18% | 23%
CC(NC(=O)c1cccc(S(=O)(=O)N2CCCCCC2)c1)c1ccccc1 (configuration not stated) | -1% | -15% | 3%
COc1ccc(S(=O)(=O)Nc2cccc3c2O[C@H](CN(C)C(=O)Nc2ccccc2)[C@@H](C)CN([C@H](C)CO)C3=O)cc1 | -2% | 83%[activator] | -5%
O=C(Cn1ncc(Cl)c(Cl)c1=O)N1CCN(Cc2ccccc2)CC1 | 0% | ? | -11%
O=C(COc1ccc(Cl)cc1Br)Nc1nnc(C2CC2)s1 | 1% | 24% | 1%
CCCCn1c(N)c(N(CCOC)C(=O)C2CC(=O)N(Cc3ccco3)C2)c(=O)[nH]c1=O (configuration not stated) | -3% | -8% | 3%
CC(NCC(O)COC1CCC(C(C)(C)C)CC1)c1ccccc1 (configuration not stated) | -23% | ? | 9%
O=C(COc1c(Cl)cccc1Cl)NN1C(=O)CSC1=S | 2% | -6% | -1%
CC(C)(C)c1ccc(C(=O)NCCC(=O)NNC(=O)COc2ccc(F)cc2)cc1 | 0% | 0% | 5%
COc1ccccc1C(=O)Nc1ccc(OCC(=O)N2CC(C)CC(C)C2)cc1 (configuration not stated) | 1% | 20% | -15%
CC(=O)C[C@@H](O)CC(=O)[C@H]1OC(=O)[C@@H](C)C/C=C\Cc2ccccc21 | 0% | -25% | -7%
O=S(=O)(c1ccc(Cl)nc1)N1CCCC1 | 2% | 9% | 2%
CC(=O)c1ccc(-c2ccc(C(=O)N3CCN(c4ccc(F)cc4)CC3)o2)cc1 | 0% | -27% | 10%
CCCC(C)c1oc(=O)cc(O)c1C (configuration not stated) | -13% | -24% | 7%
Cc1nn(Cc2ccccc2Cl)c(C)c1C(=O)N(C)CC(=O)Nc1cccc(F)c1 | -5% | ? | -7%
COC(=O)[C@@]12CCCCN1[C@H](c1ccc(-c3cccc(Cl)c3)cc1)[C@@H]1C(=O)N(C)C(=O)[C@@H]12 | 3% | -35% | 21%
Cc1occc1C(=O)NNC(=S)NCc1ccc(Cl)cc1 | 0% | ? | 13%
O=C(Cc1ccc(Br)cc1)Nc1cccc(S(=O)(=O)N2CCOCC2)c1 | -3% | -4% | -14%
CCOc1ccc(S(=O)(=O)Nc2cc(S(=O)(=O)N3CCOCC3)ccc2OC)cc1 | 6% | 7% | 0%
COc1cc(OC)cc(OC(=O)C2CCN(C(=O)c3ccc(Cl)cc3)CC2)c1 | 4% | -9% | -5%
C/C(=N\N=C1\NC(=O)CS1)c1cccs1 | -5% | 22% | -5%
COc1ccc([C@H]2CC(=O)C=C(c3cc(C=O)ccc3OC)C2)cc1OC | -2% | -19% | 2%
Cc1cc(OCc2cccc(S(=O)(=O)N3CCOCC3)c2)ccc1Cl | -19% | ? | 6%
Cc1nn(Cc2ccccc2)c(C)c1C(=O)N1CCN(CC(=O)Nc2ccc(F)cc2)CC1 | 9% | -1% | -14%
O=C(Nc1ccc(Cl)c(S(=O)(=O)N2CCOCC2)c1)c1n[nH]c(=O)c2ccccc12 | 3% | -1% | 7%
COc1cc(C#Cc2ccc3cc(CCO)oc(=O)c3c2)cc(OC)c1 | -7% | 29% | 3%
COC(=O)[C@@]12CCCCN1[C@H](c1ccc(-c3cc(C(C)=O)cs3)c(OC)c1)[C@H]1C(=O)N(C)C(=O)[C@H]12 | -1% | -27% | 5%
CN(CC(=O)Nc1cccc2ccccc12)C(=O)c1ccc(F)cc1F | -1% | -18% | -3%
CCOc1cccc2c1OC1(C)CC2NC(=O)N1Cc1ccccc1 (configuration not stated) | 0% | -17% | -2%
CN1CCN(S(=O)(=O)c2ccc(N(C)Cc3c(F)cccc3Cl)nc2)CC1 | -6% | -24% | -6%
CCc1ccccc1OCC(=O)Nc1cccc(S(=O)(=O)NCc2ccco2)c1 | 0% | -13% | 24%
Cc1nc(NC(=O)COC(=O)C2CC2C)c(Cl)cc1Cl (configuration not stated) | -6% | -3% | 10%
CN(CC(=O)Nc1ccc(Cl)cc1)C(=O)CCNC(=O)c1ccc(Cl)cc1 | -5% | 3% | -4%
CCOC(=O)[C@@H]1[C@H]2COc3cc(OC)ccc3[C@H]2N2C(=O)N(c3cccc(C)c3)C(=O)[C@]12C | 8% | 20% | 8%
CC(C)(C)OC(=O)NC(CNCc1ccccc1)Cc1ccccc1 (configuration not stated) | 1% | 77%[activator] | 6%
O=C(O)c1ccccc1C(=O)OCc1c(-c2ccccc2)ncc2ccccc12 | -7% | 2% | 16%
CCCN(C(=O)CCNC(=O)c1ccc(Cl)cc1)c1c(N)n(Cc2ccccc2)c(=O)[nH]c1=O | 1% | -7% | 3%
COc1ccc2sc(-c3ccc(SC)cc3)c(C#CCO)c2c1 | 5% | -16% | -11%
COC(=O)C1=C(c2ccc(F)cc2OCc2ccccc2)C[C@@H]2CC[C@H]1N2C(=O)N1CCOCC1 | -10% | -17% | 8%
COC(=O)[C@H](Cc1ccc(O)cc1)NC(=O)Cn1cnc2c(OCc3ccccc3)ncnc21 | -3% | -10% | -3%
N#CCCCc1cc2ccccc2cn1 | 2% | 7% | 0%
CCN(CC(=O)NCc1cccs1)C(=O)c1ccccc1F | 1% | 18% | 1%
C[C@H](OC(=O)n1ccnc1)[C@@H]1O[C@@]2(C)CCC[C@@H]1O2 | 5% | -14% | 1%
COc1cc(OC)cc(-c2c(-c3ccc(F)cc3)c3cc(-c4cccc5[nH]ccc45)ccc3n2C)c1 | -1% | -7% | 7%
O=C(c1ccc(S(=O)(=O)Nc2ccccc2Cl)cc1)N1CCCC1 | -2% | 3% | -15%
NC(=O)c1ccc(NC(=O)c2ccc(COc3ccc(F)cc3)o2)cc1 | -3% | 6% | 5%
O=C(C[C@@H]1C/C=C\C[C@@H](Cc2ccc(F)cc2)C(=O)OC[C@H]2CCCN2C1=O)NCCO | -12% | -4% | 5%
Cc1ccc(NC(=O)CSc2nncs2)cc1Cl | 5% | 34%[activator] | -3%
Cc1ccc(C(=O)c2cc(Br)ccc2N)cc1 | -5% | 27% | ?
CCOC(=O)CCN | 3% | -6% | 6%

# Compound activity from PubChem BioAssay.
